From PubChem
ugtP null kill = growth inhibition of ugtP-null S. aureus, primary screen, RN4220 ugtP deletion, OD600 | 16 h; some inactives read as strong as hits | growth inhibition, % (concentration not given with the values) | actives 0.54% (n = 330,000) | AID 1259309, 2017;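 active = z-score under -3 and OD600 up to 0.15 on both plates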;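 note: plate controls were untreated wells for no effect and antibiotic for full effect; wells of about 80 µL received 100 nL stock; the first replicate is given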
PrP 5UTR inh = inhibition of PrP 5' UTR reporter expression. cell-based PrP 5' UTR mRNA reporter, plate reader. actives 0.35% (n = 340,000). inhibition, % (no concentration beside the values). AID 488862, 2010;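 active = every replicate at 50% or more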;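 note: 0 = median of the neutral control wells; tested in H4 reporter cells; numbers are from one replicate; inactives centre near -14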
Autofluor counter = flagged as autofluorescent in microsphere protease counterscreen. fluorescence intensity (no concentration beside the values). actives 3.1% (n = 360,000). compound autofluorescence counterscreen, microsphere flow cytometry; active compounds read high;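 active = at least 3 SD above the mean of all compounds, about 16000 in these data; inconclusive = too few beads counted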;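 note: 100 nL of 1 mM stock went into each well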
Sa RN4220 lethal = growth inhibition of S. aureus RN4220, primary screen, OD600. AID 1259311, 2017. actives 0.33% (n = 330,000). inhibition, % (test concentration not listed). 16 h;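 active = z-score of -3 or lower and OD600 up to 0.18 on both plates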;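 note: plate controls were untreated cells for no effect and reference antibiotic for full effect; stock transfer was 100 nL into about 80 µL; one replicate is shown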
Mtb hypoxia inh = PubChem AID 1159583; actives 0.1% (n = 300,000); fluorescence inhibition, % (test concentration not listed); M. tuberculosis hypoxia-regulated fluorescent reporter, fluorescence;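 active = 35 to 45% if threefold the growth effect, above 45% if 1.5-fold the growth effect; inactive = the rest, general growth blockers included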;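 note: wells of about 50 µL received 100 nL stock; 0% = vehicle wells and 100% = reference inhibitor wells; whole bacteria with a GFP reporter of the hypoxia response; strong numbers were not always called active; many hits fall short of the cut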
BJeLR lethal = MLPCN primary cell-based screen for lethality selective to Ras in HRASV12 cells; BJeLR (HRASV12) viability, CellTiter-Glo ATP luminescence, 48 h; reference of the scale not given here; inhibition, % (test concentration not listed); actives 0.17% (n = 300,000); AID 1554, 2009;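 active = replicate mean above 50%; inconclusive = above 50% but judged a plate artefact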;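 note: 50 nL library stock added to about 25 µL; numbers are from one replicate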
Mtb hypoxia inh growth = second read-out of Mtb hypoxia inh, no call of its own (marks repeat the call); growth inhibition, %; measured here: M. tuberculosis growth (absorbance);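 0% = vehicle and 100% = reference antibiotic; read after six days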
Active calls of the source: *; ? = inconclusive; . = no result given.

Start of the data: the first 2 records, to show the layout:
SMILES	ugtP null kill	PrP 5UTR inh	Autofluor counter	Sa RN4220 lethal	Mtb hypoxia inh	Mtb hypoxia inh growth	BJeLR lethal
O=C(N/N=C/c1ccc(Cl)cc1)C1CC12CCC2 (configuration not stated)	.	-1.8	5279	.	.	.	8.2
CC1CCN(c2[nH]c(=S)c(C#N)c3c2CCCC3)CC1	-1.1	-12.7	11611	2.4	1.1	7.9	-14.4

The whole of this part, from the first entry:
SMILES	ugtP null kill	PrP 5UTR inh	Autofluor counter	Sa RN4220 lethal	Mtb hypoxia inh	Mtb hypoxia inh growth	BJeLR lethal
O=C(N/N=C/c1ccc(Cl)cc1)C1CC12CCC2 (configuration not stated)	.	-1.8	5279	.	.	.	8.2
CC1CCN(c2[nH]c(=S)c(C#N)c3c2CCCC3)CC1	-1.1	-12.7	11611	2.4	1.1	7.9	-14.4
O=C(Cc1ccccc1)NCc1ccc2c(c1)OCO2	2.4	-44.2	3417	4.4	8.1	3.7	1.2
CC1Cc2nc(SCC(N)=O)n(C)c(=O)c2S1 (configuration not stated)	10.4	3.0	5570	-0.3	11.8	2.3	2.0
Cc1cc(C(=O)N/N=C/c2cccnc2)c(C)o1	.	-4.1	3246	.	.	.	7.2
Cc1cccc(CN2CCN(c3nc4nonc4nc3NC3CC3)CC2)c1	1.3	6.7	3022	15.3	1.2	8.9	-0.7
NC(=O)CC(NC(=O)Cc1ccc(Br)cc1)c1ccc(NCCN2CCCCC2)c([N+](=O)[O-])c1 (configuration not stated)	-4.4	-10.4	3584	-1.4	13.8	1.7	4.6
CCOC(=O)Cc1csc(NC(=O)c2cccs2)n1	-11.7	-54.4	10996	-0.6	-0.8	5.0	7.7
Cc1ccc(C(=O)NCCn2cc(SCC(=O)Nc3cc(C)on3)c3ccccc32)cc1	3.5	8.8	5727	16.3	-11.7	3.8	2.1
COc1cc(NC(=S)NCCCN2CCOCC2)cc(OC)c1	2.3	-34.9	2566	1.0	4.1	-2.5	4.2
O=C(CN1C(=O)/C(=C/c2cccc(Br)c2)SC1=S)NCCCN1CCOCC1	0.1	-2.7	5484	0.7	10.6	-14.7	-1.2
CN(CC(=O)Nc1cccc(F)c1)C(=O)CCCNC(=O)c1ccc(Cl)cc1	-5.4	-45.4	5121	-4.4	-2.6	-0.5	4.1
NS(=O)(=O)c1cccc(NC(=O)CCSc2ccccc2Cl)c1	16.8	-71.7	10015	-1.8	2.1	9.7	-3.2
COc1ccc(C)cc1S(=O)(=O)N1CCCC(C(=O)N2CCOCC2)C1 (configuration not stated)	1.2	-14.5	7881	-2.8	1.7	3.4	3.4
COc1cccc(CN(C(=O)/C=C/c2ccco2)C2CCS(=O)(=O)C2)c1 (configuration not stated)	-2.5	-11.4	6071	2.1	4.2	9.4	-3.5
Cc1ccccc1/C=C/C(=O)N1CCOCC1	1.1	-20.0	4556	0.7	7.0	0.2	.
CCCN(/C=N/c1sc2c(c1C#N)CCCCC2)CCC	.	-8.2	2366	.	.	.	10.0
O=C(Nc1ccc2c(c1)C(=O)NC2=O)c1ccccc1	13.9	-15.1	6469	4.6	6.9	4.3	-5.4
CCCn1c(SCC(=O)N2CCCc3ccccc32)nnc1-c1ccco1	0.5	-6.2	4255	3.7	-4.7	2.5	-6.5
Cc1c(CNC(=O)c2cnn3c2NC(c2ccccc2)CC3C(F)(F)F)cnn1C (configuration not stated)	4.2	-4.2	8263	1.6	8.5	13.4	2.8
O=C(Nc1ccc2oc(-c3ccccc3F)nc2c1)c1ccccc1F	-5.6	-49.7	4442	-0.8	-3.1	0.0	-11.0
C=Cc1ncc(OC)c2c1[nH]c1ccccc12	1.2	10.3	6054	1.2	.	.	7.3
CCOc1ccccc1NS(=O)(=O)c1cc2c3c(c1)C(C)C(=O)N3CCC2 (configuration not stated)	-4.1	-10.5	5545	1.5	11.5	7.6	0.5
CN(C)c1ccc(CNC2C3CC4CC(C3)CC2C4)cc1 (configuration not stated)	1.9	-6.4	?	-0.6	.	.	-3.0
O=C(NCc1cccnc1)C1CCCN(S(=O)(=O)c2ccc(Cl)cc2)C1 (configuration not stated)	3.6	-18.9	3972	-2.6	.	.	2.4
CNC(C(=O)c1ccccc1)C(OC)c1cccc([N+](=O)[O-])c1 (configuration not stated)	0.5	-21.4	6212	6.0	13.6	-4.0	-4.9
O=S(=O)(NCc1ccco1)c1cnc(Cl)c(Br)c1	-1.1	-4.6	1964	0.1	6.1	11.5	0.0
CN(CC(=O)Nc1ccc(F)cc1)C(=O)c1cc([N+](=O)[O-])ccc1N1CCOCC1	-1.1	6.0	?	1.7	3.3	2.9	-6.1
Cc1cccc(/C=N/Nc2nncc3ccccc23)c1	.	-19.1	4765	.	.	.	8.4
O=[N+]([O-])c1cc(C(F)(F)F)ccc1NC1CCN(Cc2ccccc2)CC1	6.1	-0.8	4627	-0.4	3.2	3.1	-4.1
Cc1c(C=C2C(=O)N(C)C(=O)N(C)C2=O)c(=O)n(-c2ccccc2)n1C	-1.9	-1.3	2463	3.9	13.8	1.3	-5.0
C/C=C/C(=O)OCC(=O)Nc1cccc(F)c1	1.9	-46.3	4015	5.7	12.1	3.4	5.1
O=C(Nc1ccon1)c1ccc(Br)o1	-4.1	-19.1	8090	3.0	3.0	5.9	1.8
NS(=O)(=O)c1cccc(NC(=O)CCS(=O)(=O)c2ccc(Cl)cc2)c1	1.8	-15.6	4945	6.9	14.8	10.2	-12.3
Nc1ccc(N2CCN(c3ccc(Cl)c(Cl)c3)CC2)cc1	-3.9	-11.1	1757	-3.1	0.1	1.5	5.4
COc1ccc(NC(=O)C2CCCN(S(=O)(=O)c3ccc4[nH]c(=O)ccc4c3)C2)cc1 (configuration not stated)	2.0	-7.3	6134	7.1	.	.	-8.9
CCCCc1ccc(-c2csc(/C(C#N)=C\c3ccc(C)o3)n2)cc1	46.4	-13.6	22503*	-3.3	-4.1	10.4	-9.0
Cc1cc(C)cc(N(C(=O)c2cccs2)C2C=CS(=O)(=O)C2)c1 (configuration not stated)	8.0	-2.8	1946	2.8	-0.9	11.8	-8.3
O=CN1CCCN(Cc2nc(-c3cccc(Cl)c3)no2)CC1	1.7	-35.2	2511	11.0	-6.3	-27.3	12.4
COc1ccccc1NC(=O)Nc1ccc(N2CCOCC2)cc1	-6.2	-58.5	4617	-6.6	1.8	3.7	5.7
Cc1ccn2cc(CNS(=O)(=O)c3ccc4ccccc4c3)nc2c1	9.8	12.9	4788	2.0	6.6	5.4	-1.5
CCOC(=O)c1ccc(NC(=NS(=O)(=O)c2ccc(F)cc2F)c2ccccc2)cc1	-20.1	.	.	35.4	9.5	7.9	.
Nc1cc(Nc2ccc(Br)cc2)nc(N)n1	1.2	-32.2	4461	18.8	-1.1	-1.2	6.5
O=C(CCc1nnc(CCCc2ccccc2)o1)NCCc1ccccc1	5.1	-47.2	3140	2.7	-6.4	-5.0	4.6
CN1CCN(C(=O)c2ccccc2NC(=O)c2ccccc2Br)CC1	3.9	-22.0	5632	2.5	5.8	6.9	3.3
COc1ccc(C(=O)Nc2ccc3c(c2)nc(CN2CCCC2)n3C)cc1	3.2	-19.1	4925	5.6	3.2	2.0	16.8
CC(C)OP(=O)(OC(C)C)C(Nc1ccccc1)c1ccccc1C(F)(F)F (configuration not stated)	-22.2	-11.2	2010	7.4	14.2	12.9	-8.8
Cc1ccc(-n2nnnc2SCC(=O)NCC2(N3CCOCC3)CCCCC2)cc1	-1.0	-14.7	5354	5.6	8.3	0.5	.

A stretch from further up, as a working copy:
SMILES	ugtP null kill	PrP 5UTR inh	Autofluor counter	Sa RN4220 lethal	Mtb hypoxia inh	Mtb hypoxia inh growth	BJeLR lethal
O=C(N/N=C/c1ccc(Cl)cc1)C1CC12CCC2 (configuration not stated)	.	-1.8	5279	.	.	.	8.2
CC1CCN(c2[nH]c(=S)c(C#N)c3c2CCCC3)CC1	-1.1	-12.7	11611	2.4	1.1	7.9	-14.4
O=C(Cc1ccccc1)NCc1ccc2c(c1)OCO2	2.4	-44.2	3417	4.4	8.1	3.7	1.2
CC1Cc2nc(SCC(N)=O)n(C)c(=O)c2S1 (configuration not stated)	10.4	3.0	5570	-0.3	11.8	2.3	2.0

(continued)
SMILES	ugtP null kill	PrP 5UTR inh	Autofluor counter	Sa RN4220 lethal	Mtb hypoxia inh	Mtb hypoxia inh growth	BJeLR lethal
O=C(CSc1nnnn1C1CCCC1)Nc1ccccc1F	1.7	-21.1	4558	6.0	17.0	2.1	-2.3
Cc1ccc(N(C)C(=O)n2cnc3ccccc32)cc1	12.9	-15.9	1989	3.0	7.9	2.5	11.1
CC(C)(C)c1ccc(OCc2ccc(C(=O)NN=C3CC4CC=CC34)cc2)cc1 (configuration not stated)	23.2	.	.	2.3	15.5	-2.6	.
COc1ccc(OC)c(NC(=S)N(CCc2c(C)[nH]c3ccccc23)Cc2cccs2)c1	11.1	-7.1	6047	-0.6	7.9	1.4	-2.0
CCCCOC(=O)C(C#N)c1nc2ccccc2nc1N1CCN(Cc2ccc3c(c2)OCO3)CC1 (configuration not stated)	2.4	-19.6	3651	-0.6	.	.	.
COc1ccccc1-c1sc2cc3c(cc2c1C#Cc1cncn1C)OCO3	90.4*	-21.1	2999	50.0	13.4	22.5	.
O=C(CCn1nnc2ccccc21)N1CCN(c2ccccc2)CC1	-3.1	-37.7	4597	3.9	3.9	8.5	1.2
COc1ccc(OCC(=O)N2CCN(C(=O)COc3ccc(Br)cc3)CC2)cc1	23.2	-16.5	8875	-4.3	11.8	9.3	1.1
c1csc(Cn2c(-c3cccs3)nc3ccccc32)c1	17.7	-0.8	?	4.8	-5.3	-0.1	-5.7
O=C(COC(=O)c1ccco1)NCC1CCCO1 (configuration not stated)	5.3	-20.6	7957	0.8	-80.4	-8.1	1.2
Cc1cccc(CCNC(=O)C2CCCN(c3ncnc4c3nc3n4CCCCC3)C2)c1 (configuration not stated)	0.8	-22.8	5362	2.7	2.1	-7.9	-2.2
COc1ccc(-c2coc(CCC(=O)N3CCN(c4cc(C)ccc4C)CC3)n2)cc1	8.3	-28.1	3918	5.2	-1.2	2.4	.
Cc1onc(-c2ccccc2)c1C(=O)NC(C)C1CCCO1 (configuration not stated)	-2.7	4.0	10860	1.9	6.3	6.8	-3.2
C=CCN1C(=O)CN=C1Nc1cc(C)cc(C)c1	2.4	-15.8	4247	-2.8	.	.	0.4
Cc1ccc(C(=O)N2CCN(c3ccc([N+](=O)[O-])cc3-n3cccc3)CC2)cc1	8.8	-9.2	5822	-3.4	-11.0	-3.1	-1.5
COc1cccc(-c2csc3nnc(SCC(=O)c4ccc(NC(C)=O)cc4)n23)c1	0.2	-30.2	10751	5.5	2.1	-3.5	3.0
CC12CC3(C)CC(C)(C1)CC(C(N)=O)(C2)C3	.	-6.1	4047	.	.	.	11.2
O=C(c1ccc(F)cc1)c1ccc(N2CCCCC2)cc1	15.6	-81.5	6176	7.2	-3.0	2.7	0.1
CCCCOc1ccc(C(O)=C2C(=O)C(=O)N(CCCOC)C2c2ccncc2)cc1 (configuration not stated)	0.0	.	.	2.4	.	.	.
CCOC(=O)Nc1nc(-c2ccc(F)cc2F)cs1	27.2	-57.8	2549	14.3	15.2	0.9	5.2
COc1ccc(/C=C2\SC(=S)N(CCCC(=O)NC3CCCC3)C2=O)cc1OC	16.3	9.4	5831	5.3	9.6	19.4	12.8
O=C(CCc1nc(-c2ccccn2)no1)NCc1ccc2c(c1)OCO2	3.4	-24.6	4200	1.9	2.1	0.5	9.0
CCCCNC(c1ccccc1)c1ccncc1 (configuration not stated)	1.8	-22.8	6086	1.0	6.1	10.3	-2.0
Cc1ccc(N(C(=O)CCC(=O)Nc2nccs2)C(C(=O)NC(C)(C)C)c2ccc(O)cc2)cc1 (configuration not stated)	0.6	-26.5	4288	-1.2	-1.9	-6.9	4.0
CN(C)C(=O)CN(c1ccc2c(c1)OCO2)S(C)(=O)=O	1.5	-15.1	7945	4.5	8.4	-1.4	5.0
Cc1nn(C2CCS(=O)(=O)C2)c(C)c1CN(C)C(=O)c1ccccc1 (configuration not stated)	-1.4	-0.1	5115	-0.7	1.1	8.1	.
CC(=NNC(=O)CNC(=O)c1ccccc1)c1ccc(C)cc1	15.0	.	.	4.7	-0.8	4.6	.
